GLA inh pH 4.5 – inhibitors of human alpha-galactosidase A at pH 4.5; purified enzyme, 4-MU-alpha-Gal fluorescence, pH 4.5; 230,000 tested, under 10 active; activity change, negative = inhibition, % at 105 µM; AID 1467; P06280; inconclusive = small, poorly fitted or top-dose-only inhibition, or a rising curve; inactive = flat fitted curve, though single readings scatter; no compound was filed as active;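 further: 0% = full activity with enzyme and -100% = basal without enzyme; dose as in the result columns while the protocol names 77 µM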
Rango release inh – inhibition of RanGTP-driven Rango-importin beta dissociation. O95149+P62826. Biochemical FRET Rango-importin beta, RanGTP-induced dissociation. Potency, µM (series often up to 46.1 µM), for inactives: top-dose activity change, negative = inhibition. actives 0.071% (n = 340,000). AID 540253; active means falling FRET ratio curve, often poorly fitted, with flat reads before Ran was added; inconclusive means other falling curves, or compound fluorescence or quenching; inactive means flat or rising ratio curve;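 further: potency means the concentration at half of the fitted maximal effect; % of control where 0% means no effect; nearly all actives have a fitted effect of over 45% in size; -100% = wells without RanGTP and RCC1; the record marks most hits as doubtful in a second field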
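Compounds preincubate 5 min with complex of recombinant Rango and importin beta in PBS with 1 mM DTT. Ran (0.6 uM) loaded with 2 mM GTP plus 0.2 uM RCC1 starts dissociation; FRET is recorded 45 min later.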
miR-21 FLuc – miR-21 reporter, rising signal | HeLa miR-21 FLuc reporter, luciferase, 48 h | Potency, µM (titrated, usually from 38.3 µM), without a hit: top-dose reporter change, positive = more light | 340,000 tested, under 10 active | AID 2288; active = well fitted rising curve with a large enough effect; inconclusive = small, poorly fitted or top-dose-only effect; inactive = no such curve, though single readings can be large or run the other way;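 further: % of control where 0% means no effect; miR-21 action dims this reporter so a rising signal means less miR-21 action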
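Compounds were titrated across several concentrations (up to approximately 40 uM) and incubated 48 hours with HeLa miR-21-FLuc reporter cells (miR-21 target sequence downstream of FLuc, endogenous miR-21). Readout was firefly luciferase luminescence after lytic detection reagent.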
Rango complex inh – inhibitors of Rango-importin beta complex formation. Rango CFP/YFP FRET sensor + importin beta, 45 min. Q14974. Potency, µM (highest dose often 92.2 µM), inactives show at the top dose inhibition of complex formation. AID 540263. actives 0.031% (n = 340,000); active = rising FRET ratio curve, often small or poorly fitted; inconclusive = mostly compound fluorescence or quenching in the first reads; inactive = flat curves in all reads;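 further: potency means the concentration at half of the fitted maximal effect; 0% = DMSO wells and 100% = buffer wells lacking importin beta; nearly all actives have a fitted effect of over 15% in size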
Target sequence (Q14974 whole entry, looked up): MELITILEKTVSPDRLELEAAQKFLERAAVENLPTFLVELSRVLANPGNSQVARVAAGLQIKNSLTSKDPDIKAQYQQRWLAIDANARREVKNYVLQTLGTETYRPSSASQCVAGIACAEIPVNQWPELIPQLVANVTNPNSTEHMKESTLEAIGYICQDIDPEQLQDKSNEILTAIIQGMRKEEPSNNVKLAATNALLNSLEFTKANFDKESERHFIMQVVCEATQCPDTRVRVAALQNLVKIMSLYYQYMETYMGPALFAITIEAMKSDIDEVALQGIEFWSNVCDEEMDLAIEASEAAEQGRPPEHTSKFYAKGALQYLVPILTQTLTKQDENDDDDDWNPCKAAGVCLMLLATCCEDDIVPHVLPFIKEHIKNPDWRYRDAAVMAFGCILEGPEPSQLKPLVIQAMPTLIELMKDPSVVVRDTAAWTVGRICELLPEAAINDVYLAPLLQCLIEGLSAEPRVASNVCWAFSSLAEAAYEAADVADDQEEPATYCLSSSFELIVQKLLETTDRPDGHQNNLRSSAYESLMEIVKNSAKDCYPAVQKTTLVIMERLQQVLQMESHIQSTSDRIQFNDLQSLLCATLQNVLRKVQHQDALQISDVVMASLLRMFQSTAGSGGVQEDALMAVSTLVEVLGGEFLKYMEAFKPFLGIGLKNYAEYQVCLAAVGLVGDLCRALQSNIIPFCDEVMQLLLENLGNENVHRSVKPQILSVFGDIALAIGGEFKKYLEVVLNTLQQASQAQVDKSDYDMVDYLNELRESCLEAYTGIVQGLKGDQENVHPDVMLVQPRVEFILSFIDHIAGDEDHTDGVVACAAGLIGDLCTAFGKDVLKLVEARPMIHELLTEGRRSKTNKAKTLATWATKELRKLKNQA
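FRET biosensor Rango (snurportin 1 IBB between N-terminal EYFP and C-terminal Cerulean), 50 nM in PBS/1 mM DTT/0.02% Tween-20/0.1% BSA, preincubated 5 min RT with compound; 0.125 microM importin beta added, 45 min RT, CFP/YFP FRET ratio read.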
An asterisk follows results filed as active; u = inconclusive; x = not tested or not shown; & = joins results of further samples; [ ] = another dose, or the depositor's remark. A portion of the library; rates above refer to the full screens.

cpd | SMILES | GLA inh pH 4.5 | Rango release inh | miR-21 FLuc | Rango complex inh
1 | Cc1ccc(NC(=O)c2ccco2)c([N+](=O)[O-])c1 | 6 | -5% | -53% | 3.5%
2 | COc1ccccc1C1=NNC(=NCc2ccccc2)SC1 | -10 | 34% | -25% | 2.3%
3 | Cc1ccc(C(=O)NNC(=O)CSc2nnc3c(n2)[nH]c2ccc(C)cc23)cc1 | 5 | 0% | -3% | -0.5%
4 | O=C(Nc1cccc(F)c1)c1ccccc1 | 3 | -11% | -33% | -2.2%
5 | Cc1n[nH]c(=S)n1-c1ccccc1 | -8 | 1% | -2% | 1.1%
6 | Cc1nc2ccc([N+](=O)[O-])cc2c(=O)n1Cc1cccc(Br)c1 | x | 4% | 4% | 5.3%
7 | O=C(Nc1cccc(NC(=O)c2ccccc2Cl)c1)c1cccs1 | x | 1% | -6% | 0.1%
8 | Cc1ccc(N2CC(NC(=O)C3CC3)CC2=O)cc1 (centres undefined) | x | 12% | x | 4.0%
9 | CC1=NN(C(C#N)c2ccc([N+](=O)[O-])cc2)C(C)(C)C1 (centres undefined) | -4 | 6% | -2% | -0.3%
10 | CN(C)Cc1nnnn1-c1cccc(-n2nnnc2CN(C)C)c1 | -4 | -2% | -2% | -2.4%
11 | Nc1ccc(S(=O)(=O)Nc2ccc(C(=O)c3ccccc3)cc2)cc1 | x | 2% | -7% | -1.3%
12 | CCN1CCN(C(=O)C2CCCN(S(=O)(=O)c3cc(Cl)ccc3Cl)C2)CC1 (centres undefined) | x | 4% | 1% | -0.2%

Some of these compounds in order of their number in GLA inh pH 4.5, largest number first.
cpd | SMILES | GLA inh pH 4.5 | Rango release inh | miR-21 FLuc | Rango complex inh
1 | Cc1ccc(NC(=O)c2ccco2)c([N+](=O)[O-])c1 | 6 | -5% | -53% | 3.5%
4 | O=C(Nc1cccc(F)c1)c1ccccc1 | 3 | -11% | -33% | -2.2%
10 | CN(C)Cc1nnnn1-c1cccc(-n2nnnc2CN(C)C)c1 | -4 | -2% | -2% | -2.4%
5 | Cc1n[nH]c(=S)n1-c1ccccc1 | -8 | 1% | -2% | 1.1%

Next part
cpd | SMILES | GLA inh pH 4.5 | Rango release inh | miR-21 FLuc | Rango complex inh
13 | Cn1cnc2cc(NC(=O)c3cccs3)ccc21 | -2 | 14% | -49% | -5.1%
14 | CCCCCCC(=O)N/N=C/c1ccc(Br)cc1 | -10 | -12% | -3% | 0.2%
15 | COc1ccc(N2CCN(C(=O)c3ccc(CNS(=O)(=O)c4cccc(OC)c4)cc3)CC2)cc1 | x | -8% | 7% | u
16 | Cc1ccc(NC(=O)CCSCCc2ccccn2)cc1 | -3 | 0% | -4%&0% | 3.3%
17 | Cc1ccc(-c2nnc(SCC(=O)N/N=C/c3ccccc3C(=O)O)n2-c2ccc(Cl)cc2)cc1 | -10 | 6% | -1% | -0.8%
18 | CCn1c(=O)c(C(=O)CN2c3ccccc3CC2C)c(N)n(Cc2ccccc2)c1=O (centres undefined) | 6 | 6% | 3% | 1.2%
19 | O=C(NCC(=O)N(Cc1ccco1)C(C(=O)NC1CCCCC1)c1cccnc1)c1ccco1 (centres undefined) | 3 | 16% | -10% | 1.8%
20 | COc1ccc(OCC(O)CN2CCCCC2)cc1 (centres undefined) | -5 | 50% | -5% | 0.6%
21 | CCOCCOC(=O)c1[nH]c2c(c1C)C(=O)CC(c1ccc(N(C)C)cc1)C2 (centres undefined) | -2 | 0% | 8% | 1.2%
22 | O=C(Nc1ccccc1N1CCN(c2ccccc2)CC1)c1ccccc1F | 5 | 31% | -1% | u
23 | CCN(CC)c1ccc2c(C)cc(=O)oc2c1 | x | u | x | u
24 | Clc1cccc(-c2cc3nc4c(c(N5CCNCC5)n3n2)CCCC4)c1 | 3 | x | -32% | x
25 | COc1cc(C2c3sc(=O)[nH]c3SC3C4CCC(C4)C23)ccc1O (centres undefined) | 4 | 2% | -3% | -0.7%
26 | COc1cccc(-c2sc3ccccc3c2-c2ccc(OCCN3CCCCC3)cc2)c1 | x | 6% | x | -0.3%
27 | O=[N+]([O-])c1ccc(C(=Nc2cccc3ccccc23)N2CCOCC2)cc1 | 0 | -7% | -1% | 0.2%
28 | C#CCOCCOCCOCCNc1nc(N2CCN(C(=O)[C@H]([C@@H](C)CC)n3cc([C@@H](N)CO)nn3)CC2)nc(N2CCN(C(=O)[C@H](Cc3ccc(O)cc3)n3cc([C@@H](N)C(C)CC)nn3)CC2)n1 (some centres undefined) | -4 | 1% | 0% | -15%
29 | CCC(=O)N1CCN(c2ccc(OC)cc2[N+](=O)[O-])CC1 | -10 | 1% | -8% | -1.5%
30 | Cc1ccc(S(=O)(=O)Nc2ccc(Cl)cc2)cc1NC(=O)Cn1cnc2c1c(=O)n(C)c(=O)n2C | -1 | 13% | -13% | 0.8%
31 | O=C(NCCS(=O)(=O)NCc1ccccc1)c1ccc2c(c1)OCO2 | x | 6% | x | 0.0%
32 | C/C(=N/NC(=O)Cc1cccn1C)c1ccccc1 | 12 | -11% | -6% | 1.7%
33 | CCN(c1ccccc1)S(=O)(=O)c1nnc(NC(=O)c2ccco2)s1 | x | 0% | 4%&-21% | 1.3%
34 | CN1CCN(S(=O)(=O)c2ccc(NC(=O)Cc3ccc([N+](=O)[O-])cc3)cc2)CC1 | x | -6% | 0% | -1.6%
35 | CCCCN(CC)CCCNC(=O)c1cc2c(=O)n(C)c3ccccc3c2n1C | -10 | 10% | -2% | 6.3%
36 | COc1ccccc1-n1c(-c2ccccc2)c[n+]2c1CCc1ccccc1-2 | 0&-5 | 8%&19% | u | 2.9%&8.1%
37 | CC1Cc2ccccc2N1C(=O)CN1CCc2ccccc2C1 (centres undefined) | -1 | -16% | 0% | -3.0%
38 | Cc1ccc(S(=O)(=O)N2CCN(C(=O)CCC(=O)OCC(=O)Nc3cccc(C#N)c3)CC2)cc1 | -6 | 0% | 0% | 0.4%
39 | CC1(c2ccccc2)CC(C)(C)N2C(=O)/C(=C3\SC(=S)NC3=O)c3cccc1c32 (centres undefined) | -1 | -1% | 0% | -0.6%
40 | CCc1ccc(NC(=O)Cn2c(=O)n(CCC(=O)NC3CCN(Cc4ccccc4)CC3)c(=O)c3ccccc32)cc1 | 1 | 2% | 2% | 0.5%
41 | COC(=O)c1sc(S(=O)(=O)Nc2ccc(Br)cc2)c(C(=O)OC)c1C | 1 | -13% | -7% | 0.4%
42 | Cc1ccccc1-n1nc(C)c2cc(C(=O)N3CCOCC3)sc21 | -1 | 3% | -19% | 1.2%
43 | COCC(C)(C)COS(N)(=O)=O | x | 5% | 2% | -3.8%
44 | Cc1ccc(NC(=S)N(Cc2ccc(Br)cc2)Cc2ccc(C(=O)O)cc2)cc1C | -8[21.1 µM] | 18% | 0% | -3.7%
45 | CC(=O)NS(=O)(=O)c1cccnc1Nc1cccc(Cl)c1 | 0 | 0% | -2% | -2.0%
46 | O=C1CCCC2=C1C1(CCCCC1)N=C(Nc1nc3ccccc3s1)N2 | 9 | 10% | -2% | 0.2%
47 | COc1ccc(NS(=O)(=O)c2ccc(O)c(C(=O)OCC(=O)NC3CCCCC3)c2)cc1 | -12 | -7% | -3% | 0.6%
48 | CSc1nnc(-c2sc3cc(C(F)(F)F)cnc3c2-c2ccccc2)n1C | 1 | 2% | 23% | 2.5%
49 | COC(=O)COC(=O)c1ccccc1NC(=O)c1ccccc1 | -4 | -9% | -2% | -0.4%
50 | COC(=O)CNC(=O)CSc1nc2c(sc(=S)n2-c2ccccc2)c(=O)[nH]1 | x | 3% | 3% | 0.0%
51 | O=C(CCn1cnnn1)N1CCCC(Nc2ccc(F)cc2)C1 (centres undefined) | x | -5% | -2% | 4.7%
52 | O=C(Nc1ccc(S(=O)(=O)Nc2ncccn2)cc1)C1COc2ccccc2O1 (centres undefined) | -3 | 18% | -5% | -0.4%
53 | Cc1ccc(CN(C)S(=O)(=O)c2c(C)noc2/C=C/N(C)C)cc1 | x | -8% | 3% | -1.6%
54 | CN1C(=O)N(CC(=O)Nc2nccs2)C(=O)C12CCCCC2 | x | -7% | x | -4.5%
55 | CCOC(=O)C1=C(C)N=c2s/c(=C\c3ccc(OCC(=O)O)cc3)c(=O)n2C1c1ccccc1 (centres undefined) | x | u | -4% | u
56 | CCCOc1ccc(N2C(=O)CC(N3CCN(C(=O)c4ccco4)CC3)C2=O)cc1 (centres undefined) | 3 | -18% | -3% | -4.4%
57 | Cc1ccc(NC(=O)CN2C(=O)S/C(=C\c3cc(C)n(C)c3C)C2=O)cc1 | -14 | u | -8% | u
58 | Cc1ccccc1-n1c2nc(=O)n(C)c(=O)c-2cc2ccccc21 | u | u | -2% | u
59 | O=C(CNC(=S)NC(=O)C1CCCCC1)c1ccccc1 | 4 | -3% | -58% | -4.4%
60 | O=C(O)CC(NC(=O)CC(c1ccccc1)c1ccccc1)c1cccc([N+](=O)[O-])c1 (centres undefined) | x | 12% | 0% | 4.1%
61 | CN(CC(=O)Nc1cccc([N+](=O)[O-])c1)S(=O)(=O)c1ccccc1 | 2 | -9% | -4% | 4.4%
62 | COc1ccccc1/C=N/NC(=O)C1=NNC(c2ccccc2)(c2ccccc2)C1 | 0 | x | -8% | x
63 | O=C(NCc1ccccc1CN1CCCC1)c1ccc(Cl)c(N2CCCC2=O)c1 | x | -7% | x | 4.2%
64 | O=C(SCC(O)C(O)CS)c1cccs1 (centres undefined) | 4 | 7% | -2% | -0.7%
65 | Cc1sc2ncn(CC(=O)N3CCCCC3)c(=O)c2c1C | 5 | 3% | -6% | -0.5%
66 | O=C(NC1CCCC1)c1cccc(Oc2ccccc2)c1 | -8 | 0% | -34% | -1.4%
67 | Cc1ccc(C(=O)N2CCN(c3ccccc3Cl)CC2)cc1[N+](=O)[O-] | u | 18% | -3% | -1.3%
68 | COc1ccc2oc3ccc(OC)cc3c(=O)c2c1 | 12 | -11% | -51% | -1.4%
69 | O=C(COC(=O)/C=C/c1cccc([N+](=O)[O-])c1)NCCCN1CCCC1=O | 1 | -2% | 0% | -3.4%
70 | Cc1cc(-c2ccc(C(C)C)c(S(=O)(=O)N3CCN(c4ccccn4)CC3)c2)on1 | x | -6% | 20% | 3.8%
71 | O=C(NCc1cccnc1)/C(=C/c1ccccc1)NC(=O)c1ccccc1 | 9 | -7% | 0% | -2.5%
72 | c1cncc(-c2nc(N3CCCCCC3)c3ccccc3n2)c1 | -4 | 10% | 3% | -7.3%

Further structures.
cpd | SMILES | GLA inh pH 4.5 | Rango release inh | miR-21 FLuc | Rango complex inh
73 | Cc1ccc(C)c(Cn2nc(-c3cc(C)ccc3C)ccc2=O)c1 | x | 9% | 5%&21% | -3.6%
74 | CC(Sc1cccc[n+]1[O-])C(=O)NC1CCCCC1C (centres undefined) | x | 3% | x | 6.5%
75 | Cc1nonc1OCCNCc1c(C(=O)N(C)C)nc2ccc(Cl)cn12 | -3 | -5% | u | -1.8%
76 | CSc1nnc(CCCCCCCCc2nnc(SC)o2)o1 | -4 | -8% | -1% | -2.2%
77 | CCOC(=O)N1CCN(C(=O)Cn2nc(C)c3sc4ccccc4c3c2=O)CC1 | 8 | -10% | 1% | -0.6%
78 | Clc1ccc(C(c2ccccc2)N2CCN(c3ccccn3)CC2)cc1 (centres undefined) | -1 | 0% | 2% | 2.1%
79 | COc1ccccc1NC(=O)C1CCN(C(=O)c2ccco2)CC1 | x | -16% | 0% | 6.8%
80 | Cc1cccc2c1cnn2C(=O)CCC(=O)NCc1ccc(F)cc1 | x | 14% | 0% | -2.1%
81 | O=C1c2ccccc2C(=O)N1OCc1ccccc1 | 7 | 6% | -1% | -4.0%
82 | Nc1nnc(SCC(=O)Nc2ccc(F)c(Cl)c2)n1-c1ccccc1 | -4 | 2% | -1% | -3.7%
83 | O=c1oc2ccccc2cc1-c1ccccc1 | 3 | -4% | -64% | 0.7%
84 | CNC(=O)c1cnc(-c2ccccc2)nc1-c1ccccc1 | x | 9% | -7% | -1.3%
85 | Cc1cc(SCC(=O)c2ccccc2)nc(SCC(=O)c2ccccc2)n1 | -12 | 0% | 20% | u
86 | COC(=O)[C@H](C)NC(=O)NC1CCCc2ccccc21 (some centres undefined) | -2 | 0% | 0% | 1.9%
87 | CC1CCC(NC(=O)c2ccc3c(c2)OCO3)CC1 (centres undefined) | x | -9% | -24% | 0.4%
